PINK1 modulator: A Quantitative High throughput Screen to Identify Chemical Modulators of PINK1 Expression; PINK1 immunofluorescence, high-content cytometry, 24 h; Potency, µM (titrated, usually from 76.6 µM), inactives show at the top dose activation (PINK1 increase), most hits filed as activators; 410,000 compounds, 0.2% hits; AID 624263, 2012; active = well fitted activation curve with a large enough effect; inconclusive = small, poorly fitted or top-dose-only effect; inactive = flat fitted curve, though single readings scatter; cell line not stated here;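 note: potency is the fitted concentration of half-maximal effect; % of control where 0% means no effect; nearly all actives have a fitted effect of over 65% in size; a mitochondrial uncoupler was the plate control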
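PINK1 protein, normally rapidly degraded, was detected by immunofluorescence after 24 hour compound treatment of a stable cell line. Titration data (5 concentrations) came from laser-scanning cytometry, with CCCP-treated wells as controls.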
D2 agonist: Beta-Arrestin HTS for Positive Allosteric Modulators of the Human D2 Dopamine Receptor: Agonists. D(2) dopamine receptor (Homo sapiens), P14416. DiscoveRx PathHunter D2 beta-arrestin, luminescence, 90 min; 100% = 57 uM dopamine signal. activation, % (test concentration not listed). 360,000 compounds, 0.084% hits. AID 624465, 2012; in the data active = activation above about 40%; inconclusive = about 15% to 40%; inactive = below about 15%; note: compound concentration not given in the record; the text of the record calls up to 30% inactive
Target sequence (P14416 whole entry, looked up): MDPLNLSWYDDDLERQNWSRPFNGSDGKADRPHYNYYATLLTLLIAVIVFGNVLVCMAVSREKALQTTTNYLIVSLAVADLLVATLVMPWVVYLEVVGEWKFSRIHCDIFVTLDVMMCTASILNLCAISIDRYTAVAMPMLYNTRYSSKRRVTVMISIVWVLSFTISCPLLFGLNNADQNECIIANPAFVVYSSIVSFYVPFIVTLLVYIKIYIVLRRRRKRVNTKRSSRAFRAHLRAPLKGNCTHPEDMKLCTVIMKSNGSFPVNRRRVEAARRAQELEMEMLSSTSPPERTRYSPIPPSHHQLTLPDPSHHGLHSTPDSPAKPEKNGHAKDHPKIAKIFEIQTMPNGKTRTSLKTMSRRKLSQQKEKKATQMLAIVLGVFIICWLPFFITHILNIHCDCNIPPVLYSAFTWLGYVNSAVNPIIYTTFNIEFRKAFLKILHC
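Agonist mode: compounds alone added to overnight-plated D2 PathHunter cells for 90 min at 37 C, with 57 uM final dopamine (EC100) defining full response. Beta-arrestin recruitment detected by chemiluminescent reagent, read after 1 h at ambient temperature.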
TRPML1 blocker: qHTS for Inhibitors of the Human Mucolipin Transient Receptor Potential 1 (TRPML1). Mucolipin-1 (Homo sapiens), Q9GZU1. TRPML1-inducible cells, Ca2+ dye fluorescence, FDSS; hits give low values; inhibition of EC80 agonist-evoked calcium signal. activity change, negative = inhibition, % (concentration not given with the values). 390,000 compounds, 0.02% hits. AID 624415, 2012; in the data active means activity change below about -50%; inconclusive means about -30% to -50%; inactive means above about -30%;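 note: stimulus is agonist 54-4 at its EC80 concentration; % is set by controls: 0 for no effect and ±100 for the full control effect; the text of the record puts the active cut at -80%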
Target sequence (Q9GZU1 whole entry, looked up): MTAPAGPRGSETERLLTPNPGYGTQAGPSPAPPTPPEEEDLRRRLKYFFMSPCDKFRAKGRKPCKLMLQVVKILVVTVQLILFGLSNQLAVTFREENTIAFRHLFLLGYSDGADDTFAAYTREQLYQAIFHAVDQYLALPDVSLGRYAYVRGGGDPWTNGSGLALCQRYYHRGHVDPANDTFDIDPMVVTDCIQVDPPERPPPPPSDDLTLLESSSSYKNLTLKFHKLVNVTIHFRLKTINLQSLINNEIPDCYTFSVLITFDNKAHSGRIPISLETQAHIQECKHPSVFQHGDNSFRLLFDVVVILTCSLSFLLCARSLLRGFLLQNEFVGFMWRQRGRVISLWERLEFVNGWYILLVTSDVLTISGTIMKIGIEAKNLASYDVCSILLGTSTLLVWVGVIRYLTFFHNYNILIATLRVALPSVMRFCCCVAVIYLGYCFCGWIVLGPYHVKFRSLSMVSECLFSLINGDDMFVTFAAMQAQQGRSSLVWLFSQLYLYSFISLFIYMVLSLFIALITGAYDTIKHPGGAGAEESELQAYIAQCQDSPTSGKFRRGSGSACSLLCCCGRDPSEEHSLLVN
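Tet-induced TRPML1-DL cells loaded with Ca8 no-wash calcium dye were read kinetically on FDSS. Compound addition was followed by EC80 agonist 54-4 (4 uM final); inhibition was read over 110 s.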
Six1-Eya2 blk: qHTS Assay for Inhibitors of the Six1/Eya2 Interaction. activity change, % (no concentration beside the values). 360,000 compounds, 0.56% hits. Homeobox protein SIX1 (Homo sapiens) + Protein phosphatase EYA2 (Homo sapiens), …. AlphaScreen GST-Six1/His-Eya2 binding, biochemical; hits give low values; control for the full effect not named in the record; in the data active = activity change below about -65%; inconclusive = about -30% to -65%; inactive = above about -30%; note: % is set by controls: 0 for no effect and ±100 for the full control effect
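Homogeneous AlphaScreen proximity assay pairing GST-Six1 with His-tagged Eya2 (added as 5X mix: 250 nM and 500 nM) in 50 mM Tris pH 8.0, 300 mM NaCl, 1 mM TCEP. Glutathione donor and nickel acceptor beads; 1 h, 37 °C, dark.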
TRPML1 ag: qHTS for Agonists of the Human Mucolipin Transient Receptor Potential 1 (TRPML1) | 410,000 compounds, 0.12% hits | Mucolipin-1 (Homo sapiens), Q9GZU1 | activation, % (no concentration beside the values) | TRPML1-expressing cells, Ca2+ dye fluorescence, FDSS; host cell line not named in the record; reference of the full effect not given here; in the data active = activation above about 50%; inconclusive = about 30% to 50%; inactive = below about 30%; note: 0% is about no effect; the text of the record puts the active cut at 80%
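TRPML1-DL cells, Tet-induced overnight (~16 h, 37 degrees C), loaded 45-90 min at room temperature with Ca8 no-wash calcium dye plus quencher. FDSS fluorescence: 10 s baseline, compound pin-transfer, 110 s agonist read, then EC80 54-4 (4uM final) and 110 s antagonist read.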
CtBP-E1A inh: qHTS Assay for Inhibitors of the CtBP/E1A Interaction; CtBP / adenovirus E1A interaction (AlphaScreen); AlphaScreen GST-E1A/His-CtBP binding, 1536-well; hits give low values; control for the full effect not named in the record; activity change, % (no concentration beside the values); 340,000 compounds, 0.49% hits; AID 651724, 2012; in the data active means activity change below about -65%; inconclusive means about -30% to -65%; inactive means above about -30%; note: % is set by controls: 0 for no effect and ±100 for the full control effect
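Steps: dispense buffer (Tris pH 8.0, NaCl 300 mM, TCEP 1 mM, BSA, Tween 20); add 5X protein mix (GST-E1A, His-CtBP, 125 nM each); pin 23 nL compound; 2 h at 37 °C, dark; add 5X beads (50 ug/mL); 1 h; read.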
The depositor's hits bear a star; [ ] = remark or other dose.

How did O=C(CCNC(=O)C1CCN(S(=O)(=O)c2ccccc2)CC1)Nc1ccccc1 do in these assays?
PINK1 modulator: -1.0%; D2 agonist: -0.8; TRPML1 blocker: -0.5; Six1-Eya2 blk: -1.4; TRPML1 ag: -0.7; CtBP-E1A inh: -4.3

Results for CCc1ccccc1N(C)S(=O)(=O)c1ccc2c(c1)C(C)(C)C(=O)N2C ?
PINK1 modulator: 1.0%; TRPML1 blocker: -23.7; TRPML1 ag: -1.1

How did CC(C)c1nc(CNC(=O)c2cc(COc3c(F)cccc3F)on2)cs1 do in these assays?
PINK1 modulator: 3.3%; D2 agonist: -3.5; TRPML1 blocker: 36.4; Six1-Eya2 blk: 14.5; TRPML1 ag: 1.0; CtBP-E1A inh: -3.1

What do the screens show for `CCN1C(=O)/C(=C/N(C(C)=O)c2ccccc2)N(c2ccccc2)C1=S`?
PINK1 modulator: 3.2%; D2 agonist: -3.1; TRPML1 blocker: 12.3; Six1-Eya2 blk: 5.9; TRPML1 ag: -0.2; CtBP-E1A inh: -0.4

What do the screens show for `CN(CC(=O)Nc1cccc(F)c1)CC(=O)Nc1ccccc1-c1ccccc1`?
PINK1 modulator: 4.4%; D2 agonist: -2.9; TRPML1 blocker: 10.3; Six1-Eya2 blk: -4.3; TRPML1 ag: -1.1; CtBP-E1A inh: 6.4

What do the screens show for `COc1ccc(C(=O)CN2C(=O)NC3(CCc4ccccc43)C2=O)cc1` (stereo not drawn)?
PINK1 modulator: 0.1%; D2 agonist: -3.5; TRPML1 blocker: -17.0; Six1-Eya2 blk: 2.4; TRPML1 ag: 1.3; CtBP-E1A inh: 2.0

How did O=C(COC(=O)c1ccc([N+](=O)[O-])s1)NCc1ccccc1 do in these assays?
PINK1 modulator: 0.2%; D2 agonist: 0.7; TRPML1 blocker: 6.6; Six1-Eya2 blk: -8.7; TRPML1 ag: -0.6; CtBP-E1A inh: 23.7

Results for CCCc1cc(=O)oc2c3c(cc(OCC(=O)N4CCC[C@H]4C(=O)O)c12)OC(C)(C)CC3 ?
PINK1 modulator: 0.1%; D2 agonist: 7.8; Six1-Eya2 blk: -2.1; CtBP-E1A inh: 2.5

What do the screens show for `C#CCNC(=O)C1=C[C@@H](c2ccc(Br)cc2)C[C@@H](OCc2ccc(CO)cc2)O1`?
PINK1 modulator: 1.0%; D2 agonist: 2.5; TRPML1 blocker: -15.2; Six1-Eya2 blk: -0.9; TRPML1 ag: -0.3; CtBP-E1A inh: -0.3

Results for O=C(/C=C/c1ccc(Cl)c(Cl)c1)n1cccn1 ?
PINK1 modulator: 1.1%; D2 agonist: -4.1; TRPML1 blocker: 0.0; Six1-Eya2 blk: 4.4; TRPML1 ag: -0.7; CtBP-E1A inh: 2.3

Results for O=S(=O)(Nc1cccc(S(=O)(=O)N2CCCC2)c1)c1ccc(F)cc1 ?
PINK1 modulator: 2.8%; D2 agonist: 3.3; TRPML1 blocker: 6.1; Six1-Eya2 blk: 5.5; TRPML1 ag: -0.2; CtBP-E1A inh: 11.0

What do the screens show for `CC(C)N(CCC#N)C(=O)Nc1ccc2c(c1)CCO2`?
PINK1 modulator: 0.5%; D2 agonist: -11.0; TRPML1 blocker: 12.4; Six1-Eya2 blk: 1.1; TRPML1 ag: 0.3; CtBP-E1A inh: -2.8

Next part, starting with the last 2 of the part before.
Results for O=S(=O)(Nc1cccc(S(=O)(=O)N2CCCC2)c1)c1ccc(F)cc1 ?
PINK1 modulator: 2.8%; D2 agonist: 3.3; TRPML1 blocker: 6.1; Six1-Eya2 blk: 5.5; TRPML1 ag: -0.2; CtBP-E1A inh: 11.0

What do the screens show for `CC(C)N(CCC#N)C(=O)Nc1ccc2c(c1)CCO2`?
PINK1 modulator: 0.5%; D2 agonist: -11.0; TRPML1 blocker: 12.4; Six1-Eya2 blk: 1.1; TRPML1 ag: 0.3; CtBP-E1A inh: -2.8

What do the screens show for `COc1ccc(NC(=O)C(=O)Nc2cccc3cccnc23)cc1OC`?
PINK1 modulator: 5.1%; D2 agonist: 0.3; TRPML1 blocker: 1.8; Six1-Eya2 blk: 4.9; TRPML1 ag: 0.6; CtBP-E1A inh: -17.5

Results for CCc1c(C2(O)CCCCC2)[nH]c2ccc(C(=O)OC)cc12 ?
PINK1 modulator: 5.1%; D2 agonist: -6.1; TRPML1 blocker: -7.8; Six1-Eya2 blk: -0.8; TRPML1 ag: -0.1; CtBP-E1A inh: -0.7

Results for COc1cc(OC)c(NC(=O)CCNC(=O)Cn2cnc3ccccc3c2=O)cc1Cl ?
PINK1 modulator: -1.7%; D2 agonist: -0.8; TRPML1 blocker: 4.4; Six1-Eya2 blk: -2.3; TRPML1 ag: -0.8; CtBP-E1A inh: -0.1

What do the screens show for `COc1cc(CNc2ccc3[nH]c(=O)[nH]c3c2)cc(Br)c1OCC(=O)NC(C)(C)C`?
PINK1 modulator: 3.7%[38.3 µM]; D2 agonist: 1.7; TRPML1 blocker: -2.8; Six1-Eya2 blk: -24.9; TRPML1 ag: -0.3; CtBP-E1A inh: -24.8

How did CN1CCN(C(=O)c2cc(COc3ccccc3)on2)[C@@H](c2ccccc2)C1 do in these assays?
PINK1 modulator: -0.6%; D2 agonist: -3.5; TRPML1 blocker: 3.8; Six1-Eya2 blk: -5.0; TRPML1 ag: -0.4; CtBP-E1A inh: 0.0

How did CCN(CC)S(=O)(=O)c1ccc(-c2nnc(SC)o2)cc1 do in these assays?
PINK1 modulator: inconclusive; D2 agonist: -3.2; TRPML1 blocker: 0.1; Six1-Eya2 blk: -0.5; TRPML1 ag: -1.0; CtBP-E1A inh: -2.7

What do the screens show for `Cc1cc(Cl)c(S(=O)(=O)NCc2ccccc2)cc1OCC(N)=O`?
PINK1 modulator: -0.2%; D2 agonist: -0.7; TRPML1 blocker: 6.7; Six1-Eya2 blk: -1.3; TRPML1 ag: -0.1; CtBP-E1A inh: 2.8

What do the screens show for `CCOC(=O)C(NC(=O)c1ccccc1)=C1CCCCC1`?
PINK1 modulator: 7.5%; D2 agonist: -2.0; TRPML1 blocker: 0.2; Six1-Eya2 blk: -13.1; TRPML1 ag: -0.3; CtBP-E1A inh: -2.7

How did O=C1CC(N2CCN(Cc3ccc4c(c3)OCO4)CC2)C(=O)N1Cc1ccc(N2CCCC2=O)cc1 (stereo not drawn) do in these assays?
PINK1 modulator: -1.6%; D2 agonist: -3.5; TRPML1 blocker: 10.2; Six1-Eya2 blk: 2.0; TRPML1 ag: -0.7; CtBP-E1A inh: -1.0

How did O=CN(/C=C1\Sc2ccccc2C1=O)Cc1ccccc1 do in these assays?
PINK1 modulator: 5.6%; D2 agonist: 1.4; TRPML1 blocker: 0.6; Six1-Eya2 blk: -12.2; TRPML1 ag: 0.1; CtBP-E1A inh: -3.0

How did COc1ccc(-n2c(C)c(C(C)=O)c(C(C)=O)c2C)cc1OC do in these assays?
PINK1 modulator: -0.9%; D2 agonist: -3.1; TRPML1 blocker: -15.8; Six1-Eya2 blk: 3.7; TRPML1 ag: -0.2; CtBP-E1A inh: 16.9

What do the screens show for `C=CCn1c(O)c(N=NC(=O)c2cccnc2)c2cc(Br)ccc21`?
PINK1 modulator: 0.9%; D2 agonist: -6.4; Six1-Eya2 blk: -8.8; CtBP-E1A inh: -3.5

What do the screens show for `O=C(CNC(=O)C12CC3CC(CC(C3)C1)C2)OCc1ccc(F)cc1Cl`?
PINK1 modulator: 0.4%; D2 agonist: 8.7; TRPML1 blocker: 23.9; Six1-Eya2 blk: 8.7; TRPML1 ag: 3.2; CtBP-E1A inh: 9.7

What do the screens show for `Fc1ccc(C2CCCCN2Cc2nc(CC3CC3)no2)cc1` (stereo not drawn)?
PINK1 modulator: 3.5%; D2 agonist: 3.6; TRPML1 blocker: -0.9; Six1-Eya2 blk: 6.7; TRPML1 ag: 0.0; CtBP-E1A inh: 1.5

What do the screens show for `COc1ccc(C(NC(=O)C2CCN(CCOc3ccc(Cl)cc3Cl)CC2)c2ccccc2C)cn1` (stereo not drawn)?
PINK1 modulator: 3.6%; D2 agonist: 9.6; Six1-Eya2 blk: 18.1; TRPML1 ag: 0.5; CtBP-E1A inh: 22.2

What do the screens show for `COc1cc(-c2nnc(SCC(=O)O)n2-c2ccccc2)cc(OC)c1OC`?
PINK1 modulator: 2.4%; D2 agonist: -0.6; TRPML1 blocker: 33.8; Six1-Eya2 blk: 5.2; TRPML1 ag: 2.5; CtBP-E1A inh: -1.0

What do the screens show for `COc1ccc2[nH]cc(C(=O)C(=O)N3CCCCC3)c2c1`?
PINK1 modulator: -0.5%; D2 agonist: -5.4; Six1-Eya2 blk: 15.2; CtBP-E1A inh: 24.2

How did O=C(c1cc2nc(-c3cccs3)cc(C(F)(F)F)n2n1)N1CCCc2ccccc21 do in these assays?
PINK1 modulator: 0.8%; D2 agonist: -2.1; TRPML1 blocker: 19.6; Six1-Eya2 blk: 2.1; TRPML1 ag: 2.7; CtBP-E1A inh: -14.4

How did Cn1c(SCC(=O)O)nnc1C1CCCCC1 do in these assays?
PINK1 modulator: 8.1%[38.3 µM]; D2 agonist: -1.3; TRPML1 blocker: 24.5; Six1-Eya2 blk: 5.3; TRPML1 ag: 0.1; CtBP-E1A inh: 0.7

How did CCOc1nc(C)nc(NC(=O)NS(=O)(=O)c2ccccc2Cl)n1 do in these assays?
PINK1 modulator: -1.2%; D2 agonist: -1.2; TRPML1 blocker: 8.4; Six1-Eya2 blk: 39.2; TRPML1 ag: 0.7; CtBP-E1A inh: 3.6

What do the screens show for `O=C(O)CCN1C(=O)/C(=C\c2ccncc2)SC1=S`?
PINK1 modulator: 9.1%; D2 agonist: -3.2; TRPML1 blocker: 32.8; Six1-Eya2 blk: 0.7; TRPML1 ag: 0.6

What do the screens show for `CCC(=O)N1CCCC1(C)C(=O)Nc1cc(OC)ccc1OC` (stereo not drawn)?
PINK1 modulator: 0.0%; D2 agonist: 1.2; Six1-Eya2 blk: 9.0; TRPML1 ag: -0.4; CtBP-E1A inh: -5.4

Results for O=C(O)c1cccc(S(=O)(=O)N2CCN(c3ccccn3)CC2)c1 ?
PINK1 modulator: -0.3%; D2 agonist: 6.8; TRPML1 blocker: -3.1; Six1-Eya2 blk: 1.8; TRPML1 ag: -0.2; CtBP-E1A inh: 6.0

What do the screens show for `N#Cc1nc(-c2cccs2)oc1NCc1ccc2c(c1)OCO2`?
PINK1 modulator: 0.0%; D2 agonist: -0.7; TRPML1 blocker: -3.5; Six1-Eya2 blk: -20.1; TRPML1 ag: 2.4; CtBP-E1A inh: -17.9
